Ran importin: RanGTP/importin-beta interaction disruptors – biochemical, CFP-Ran/YFP-importin-beta FRET, RCC1, cell-free, primary screen (AID 434961); CFP-Ran/YFP-importin-beta FRET, cell-free; hits give high values; inhibition, %; hit rate 0.2% among 7,700;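 active = more than half of the replicate wells above 15% inhibition; inconclusive = exactly half above it; inactive = fewer than half above it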;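 note: 0% = DMSO wells and 100% inhibition = RanGDP control wells on each plate; stock of unstated strength diluted about 400-fold; mean of two wells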
* marks the source's active call; other numbers are inactive results; u = inconclusive. The list is partial; rates above refer to the full screens.

SMILES	Ran importin
C[C@@H]1CN([C@H](C)CO)C(=O)c2cc(NC(=O)CCC(F)(F)F)ccc2O[C@@H](C)CCCCO[C@@H]1CN(C)C(=O)c1ccncc1	4.4
CNC[C@@H]1Oc2ccc(NC(=O)Cc3cn(C)c4ccccc34)cc2CC(=O)N([C@@H](C)CO)C[C@@H]1C	1.4
C[C@H](CO)N1C[C@H](C)[C@@H](CN(C)C(=O)Nc2cccc3ccccc23)Oc2ccc(NC(=O)CCCN(C)C)cc2C1=O	-2.1
C[C@H](CO)N1C[C@H](C)[C@@H](CN(C)C(=O)Nc2cccc3ccccc23)Oc2c(NS(=O)(=O)c3ccccc3)cccc2C1=O	-1.7
C[C@@H]1CN([C@H](C)CO)C(=O)c2cc(NS(C)(=O)=O)ccc2O[C@H]1CN(C)CC1CC1	7.2
C[C@H]1CN([C@@H](C)CO)C(=O)c2cccc(NS(C)(=O)=O)c2O[C@H]1CN(C)Cc1ccncc1	7.7
C[C@@H]1CN([C@@H](C)CO)C(=O)c2cccc(NC(=O)Nc3ccc(C(F)(F)F)cc3)c2O[C@@H]1CN(C)Cc1ccncc1	3.7
C[C@@H]1CN([C@H](C)CO)C(=O)CCCn2cc(nn2)CO[C@@H]1CN(C)S(=O)(=O)c1ccc(Oc2ccccc2)cc1	0.6
C[C@@H]1CN([C@@H](C)CO)C(=O)CCCn2cc(nn2)CO[C@@H]1CN(C)C(=O)Nc1ccnc(N2CCOCC2)c1	u
C[C@@H]1CN([C@@H](C)CO)C(=O)c2cc(NC(=O)Nc3ccc(F)cc3)ccc2O[C@@H](C)CCCCO[C@@H]1CN(C)C	-4.0
C[C@@H]1CN([C@@H](C)CO)C(=O)c2cccc(NS(=O)(=O)c3cn(C)cn3)c2O[C@@H]1CN(C)Cc1ccc(C(F)(F)F)cc1	-2.3
Cc1noc(C)c1NC(=O)Nc1ccc2c(c1)C(=O)N([C@@H](C)CO)C[C@H](C)[C@@H](CN(C)C)OCCCC[C@@H](C)O2	u
C[C@@H]1CN([C@H](C)CO)C(=O)c2cc(NC(=O)C3CCCCC3)ccc2O[C@@H](C)CCCCO[C@H]1CN(C)Cc1ccc(C(=O)O)cc1	-1.1
COc1ccc(S(=O)(=O)Nc2ccc3c(c2)CC(=O)N([C@H](C)CO)C[C@@H](C)[C@H](CN(C)S(=O)(=O)c2cn(C)cn2)O3)cc1	-0.6
C[C@H](CO)N1C[C@H](C)[C@H](CN(C)C(=O)NC2CCCC2)Oc2ncc(-c3cccc(C(F)(F)F)c3)cc2C1=O	4.9
C[C@H](CO)N1C[C@H](C)[C@H](CN(C)C(=O)c2ccncc2)OCCCC[C@H](C)Oc2ccc(NC(=O)Cc3ccccc3)cc2C1=O	-3.8
C[C@@H]1CN([C@H](C)CO)C(=O)c2cccc(NC(=O)c3cnccn3)c2O[C@@H]1CN(C)CC1CC1	4.5
CC(C)NC(=O)Nc1ccc2c(c1)C(=O)N([C@@H](C)CO)C[C@@H](C)[C@H](CN(C)S(=O)(=O)c1ccccc1)OCCCC[C@@H](C)O2	0.0
C[C@H]1CN([C@@H](C)CO)C(=O)c2cc(NC(=O)Nc3ccc(F)cc3)ccc2O[C@@H]1CN(C)Cc1ccc2c(c1)OCO2	-2.0
C[C@@H]1CN([C@H](C)CO)C(=O)c2cccc(NC(=O)Nc3ccc(C(F)(F)F)cc3)c2O[C@@H]1CN(C)Cc1ccc(C(=O)O)cc1	u
C[C@@H]1CN([C@@H](C)CO)C(=O)CCCn2cc(nn2)CO[C@@H]1CN(C)C(=O)c1ccc2ccn(C)c2c1	-2.9
Cc1ccc(S(=O)(=O)N(C)C[C@H]2Oc3ccc(NS(C)(=O)=O)cc3C(=O)N([C@H](C)CO)C[C@@H]2C)cc1	-1.5
CC(C)NC(=O)Nc1ccc2c(c1)C(=O)N([C@@H](C)CO)C[C@H](C)[C@H](CN(C)Cc1ccncc1)OCCCC[C@@H](C)O2	-2.8
C[C@H]1CN([C@@H](C)CO)C(=O)c2cc(NC(=O)Nc3ccc4c(c3)OCO4)ccc2O[C@H]1CN(C)Cc1ccc(C(F)(F)F)cc1	-0.7
Cc1noc(C)c1NC(=O)N(C)C[C@@H]1Oc2ccc(NC(=O)Nc3ccc4c(c3)OCO4)cc2C(=O)N([C@H](C)CO)C[C@H]1C	-3.5
C[C@@H]1CN([C@H](C)CO)C(=O)c2cccc(NC(=O)c3ccncc3)c2O[C@H]1CN(C)C(=O)Nc1ccccc1	-1.0
C[C@H](CO)N1C[C@H](C)[C@H](CN(C)C(=O)C2CCCCC2)OCCCC[C@H](C)Oc2ccc(NS(=O)(=O)c3cccs3)cc2C1=O	0.1
C[C@H](CO)N1C[C@H](C)[C@@H](CN(C)C)OCCCC[C@H](C)Oc2ccc(NC(=O)Nc3ccccc3)cc2C1=O	1.4
CC(C)NC(=O)N(C)C[C@@H]1OCCCC[C@@H](C)Oc2ccc(NS(=O)(=O)c3ccccc3)cc2C(=O)N([C@@H](C)CO)C[C@H]1C	0.8
C[C@H]1CCCCO[C@H](CN(C)C(=O)Cc2ccccc2)[C@@H](C)CN([C@@H](C)CO)C(=O)c2cc(NC(=O)Nc3ccccc3)ccc2O1	3.2
CNC[C@H]1Oc2ccc(NS(C)(=O)=O)cc2CC(=O)N([C@@H](C)CO)C[C@@H]1C	-2.6
Cc1noc(C)c1S(=O)(=O)Nc1cccc2c1O[C@H](CN(C)CC1CC1)[C@H](C)CN([C@@H](C)CO)C2=O	-1.6
CC(C)NC(=O)Nc1ccc2c(c1)C(=O)N([C@@H](C)CO)C[C@H](C)[C@H](CN(C)C(=O)Nc1ccccc1)OCCCC[C@H](C)O2	0.9
CC(C)NC(=O)Nc1ccc2c(c1)C(=O)N([C@H](C)CO)C[C@@H](C)[C@@H](CN(C)Cc1ccc(C(=O)O)cc1)OCCCC[C@@H](C)O2	-1.7
C[C@@H]1CN([C@H](C)CO)C(=O)Cc2cc(NC(=O)CCC(F)(F)F)ccc2O[C@@H]1CN(C)S(=O)(=O)c1ccccc1	u
CNC[C@@H]1Oc2ccc(NS(=O)(=O)c3cn(C)cn3)cc2CC(=O)N([C@@H](C)CO)C[C@@H]1C	-3.2
Cc1noc(C)c1NC(=O)Nc1ccc2c(c1)C(=O)N([C@H](C)CO)C[C@H](C)[C@@H](CN(C)C(=O)CCCN(C)C)OCCCC[C@H](C)O2	-1.0
C[C@H]1CCCCO[C@H](CN(C)S(=O)(=O)c2ccccc2)[C@@H](C)CN([C@@H](C)CO)C(=O)c2cc(NC(=O)Nc3ccccc3)ccc2O1	-1.7
COc1ccc(S(=O)(=O)N(C)C[C@@H]2Oc3ncc(/C=C/c4ccccc4)cc3C(=O)N([C@H](C)CO)C[C@@H]2C)cc1	-2.7
Cc1noc(C)c1NC(=O)Nc1ccc2c(c1)C(=O)N([C@H](C)CO)C[C@@H](C)[C@@H](CN(C)C)OCCCC[C@@H](C)O2	-2.2

9 entries from above, set out differently:
mol | Ran importin
Cc1noc(C)c1S(=O)(=O)Nc1cccc2c1O[C@H](CN(C)CC1CC1)[C@H](C)CN([C@@H](C)CO)C2=O | -1.6
CC(C)NC(=O)Nc1ccc2c(c1)C(=O)N([C@@H](C)CO)C[C@H](C)[C@H](CN(C)C(=O)Nc1ccccc1)OCCCC[C@H](C)O2 | 0.9
CC(C)NC(=O)Nc1ccc2c(c1)C(=O)N([C@H](C)CO)C[C@@H](C)[C@@H](CN(C)Cc1ccc(C(=O)O)cc1)OCCCC[C@@H](C)O2 | -1.7
C[C@@H]1CN([C@H](C)CO)C(=O)Cc2cc(NC(=O)CCC(F)(F)F)ccc2O[C@@H]1CN(C)S(=O)(=O)c1ccccc1 | u
CNC[C@@H]1Oc2ccc(NS(=O)(=O)c3cn(C)cn3)cc2CC(=O)N([C@@H](C)CO)C[C@@H]1C | -3.2
Cc1noc(C)c1NC(=O)Nc1ccc2c(c1)C(=O)N([C@H](C)CO)C[C@H](C)[C@@H](CN(C)C(=O)CCCN(C)C)OCCCC[C@H](C)O2 | -1.0
C[C@H]1CCCCO[C@H](CN(C)S(=O)(=O)c2ccccc2)[C@@H](C)CN([C@@H](C)CO)C(=O)c2cc(NC(=O)Nc3ccccc3)ccc2O1 | -1.7
COc1ccc(S(=O)(=O)N(C)C[C@@H]2Oc3ncc(/C=C/c4ccccc4)cc3C(=O)N([C@H](C)CO)C[C@@H]2C)cc1 | -2.7
Cc1noc(C)c1NC(=O)Nc1ccc2c(c1)C(=O)N([C@H](C)CO)C[C@@H](C)[C@@H](CN(C)C)OCCCC[C@@H](C)O2 | -2.2

Further records.
SMILES	Ran importin
C[C@@H]1CN([C@H](C)CO)C(=O)Cc2cc(NC(=O)Nc3ccc(F)cc3)ccc2O[C@H]1CN(C)CC1CC1	-4.0
C[C@H]1CN([C@@H](C)CO)C(=O)c2cc(NC(=O)NC3CCCCC3)ccc2O[C@@H]1CN(C)Cc1ccc2c(c1)OCO2	5.4
C[C@H]1CN([C@@H](C)CO)C(=O)c2cccc(NC(=O)C3CCOCC3)c2O[C@H]1CN(C)C(=O)Nc1ccc(C(F)(F)F)cc1	-1.9
Cc1noc(C)c1S(=O)(=O)N(C)C[C@@H]1OCCCC[C@@H](C)Oc2ccc(NC(=O)NC(C)C)cc2C(=O)N([C@H](C)CO)C[C@H]1C	5.6
Cc1noc(C)c1S(=O)(=O)N(C)C[C@H]1Oc2ccc(NC(=O)C3CCCCC3)cc2CC(=O)N([C@H](C)CO)C[C@@H]1C	0.1
C[C@H]1CN([C@@H](C)CO)C(=O)c2cccc(NC(=O)c3ccncc3)c2O[C@@H]1CN(C)S(=O)(=O)c1cn(C)cn1	-1.7
C[C@H](CO)N1C[C@H](C)[C@H](CN(C)Cc2ccc(C(F)(F)F)cc2)Oc2c(NS(=O)(=O)c3cn(C)cn3)cccc2C1=O	3.3
COc1ccc(S(=O)(=O)Nc2ccc3c(c2)C(=O)N([C@@H](C)CO)C[C@H](C)[C@H](CN(C)Cc2ccncc2)O3)cc1	-1.6
C[C@@H]1CCCCO[C@H](CN(C)C(=O)c2ccncc2)[C@H](C)CN([C@@H](C)CO)C(=O)c2cc(NC(=O)Cc3ccccc3)ccc2O1	-0.4
C[C@H](CO)N1C[C@H](C)[C@H](CN(C)Cc2ccc(C(F)(F)F)cc2)Oc2ccc(NC(=O)Cn3cnnn3)cc2CC1=O	0.8
C[C@H]1CN([C@@H](C)CO)C(=O)c2cc(NC(=O)c3ccncc3)ccc2O[C@@H]1CN(C)C	-1.2
CNC[C@@H]1Oc2ccc(NS(=O)(=O)c3ccccc3)cc2CC(=O)N([C@@H](C)CO)C[C@@H]1C	-0.1
Cc1noc(C)c1NC(=O)Nc1cccc2c1O[C@@H](CN(C)Cc1ccccc1)[C@H](C)CN([C@H](C)CO)C2=O	-3.4
Cc1noc(C)c1NC(=O)N(C)C[C@@H]1OCCCC[C@@H](C)Oc2ccc(NS(=O)(=O)c3cccs3)cc2C(=O)N([C@@H](C)CO)C[C@H]1C	-6.2
C[C@@H]1CCCCO[C@H](CN(C)Cc2ccc3c(c2)OCO3)[C@H](C)CN([C@@H](C)CO)C(=O)c2cc(NS(=O)(=O)c3ccccc3)ccc2O1	2.7
CNC[C@@H]1Oc2ccc(NC(=O)Cc3ccccc3)cc2CC(=O)N([C@@H](C)CO)C[C@@H]1C	1.7
C[C@H](CO)N1C[C@H](C)[C@H](CN(C)C(=O)Nc2cccc3ccccc23)Oc2ccc(NC(=O)NC3CCCCC3)cc2CC1=O	5.1
CNC[C@@H]1Oc2ccc(NC(=O)C3CC3)cc2C(=O)N([C@@H](C)CO)C[C@@H]1C	9.2
CNC[C@@H]1Oc2c(NC(=O)c3ccc(-c4nccs4)cc3)cccc2C(=O)N([C@H](C)CO)C[C@@H]1C	-2.4
C[C@@H]1CCCCO[C@@H](CN(C)C(=O)c2ccncc2)[C@H](C)CN([C@@H](C)CO)C(=O)c2cc(N(C)C)ccc2O1	1.4
C[C@@H]1CN([C@H](C)CO)C(=O)c2cccc(NS(C)(=O)=O)c2O[C@H]1CN(C)C(=O)Nc1ccccc1	-2.1
C[C@@H]1CN([C@@H](C)CO)C(=O)c2cccc(NS(C)(=O)=O)c2O[C@@H]1CN(C)Cc1ccc(Cl)c(Cl)c1	u
C[C@H]1CN([C@@H](C)CO)C(=O)Cc2cc(NC(=O)Nc3ccccc3)ccc2O[C@H]1CN(C)Cc1ccc(C(=O)O)cc1	4.4
COc1ccc(CN(C)C[C@H]2Oc3ccc(NC(=O)Nc4ccc(OC)cc4)cc3CC(=O)N([C@@H](C)CO)C[C@@H]2C)cc1	-4.5
Cc1noc(C)c1NC(=O)Nc1cccc2c1O[C@H](CN(C)Cc1ccc(Cl)c(Cl)c1)[C@@H](C)CN([C@@H](C)CO)C2=O	2.7
COc1ccc(NC(=O)Nc2ccc3c(c2)C(=O)N([C@@H](C)CO)C[C@H](C)[C@@H](CN(C)S(=O)(=O)c2cccs2)O3)cc1	0.0
C[C@H](CO)N1C[C@H](C)[C@@H](CN(C)Cc2ccc3c(c2)OCO3)Oc2c(NC(=O)C3CCOCC3)cccc2C1=O	-1.4
CC(C)NC(=O)Nc1ccc2c(c1)CC(=O)N([C@@H](C)CO)C[C@@H](C)[C@H](CN(C)Cc1ccc(-c3ccccc3)cc1)O2	0.8
C[C@@H]1CN([C@@H](C)CO)C(=O)c2cc(N(C)C)ccc2O[C@@H]1CN(C)Cc1ccncc1	3.0
Cc1noc(C)c1NC(=O)N(C)C[C@@H]1OCCCC[C@H](C)Oc2ccc(NS(=O)(=O)c3cccs3)cc2C(=O)N([C@@H](C)CO)C[C@H]1C	0.3
CNC[C@@H]1Oc2ccc(NS(=O)(=O)c3ccccc3)cc2CC(=O)N([C@H](C)CO)C[C@@H]1C	-1.2
C[C@H](CO)N1C[C@H](C)[C@H](CN(C)C)Oc2c(NS(=O)(=O)c3ccc(Cl)cc3)cccc2C1=O	0.9
C[C@@H]1CN([C@@H](C)CO)C(=O)Cc2cc(NC(=O)CCC(F)(F)F)ccc2O[C@@H]1CN(C)Cc1ccc2c(c1)OCO2	0.3
COc1ccc(NC(=O)Nc2ccc3c(c2)CC(=O)N([C@@H](C)CO)C[C@@H](C)[C@@H](CN(C)S(=O)(=O)c2ccc(Cl)cc2)O3)cc1	3.3
COc1ccc(S(=O)(=O)N(C)C[C@@H]2Oc3ccc(NS(C)(=O)=O)cc3CC(=O)N([C@H](C)CO)C[C@H]2C)cc1	-1.2
